High-throughput results as filed in PubChem.
S aureus helic = blocks Staphylococcus aureus DNA helicase | purified S. aureus helicase, fluorescence unwinding assay; about half of the hits fall short of the stated cut | inhibition, %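 (tested at about 80 µM)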 | 0.05% of 120,000 active;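 active = both duplicates at 50% or more, or one of them with a favoured structure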;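 also: 0% = mean of negative control wells and 100% = mean of positive control wells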
MgrA DNA FP = modulators of Staphylococcus aureus MgrA DNA binding. fluorescence polarization. inhibition, %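 (about 10 µg/mL by stock and volumes)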. 0.13% of 84,000 active. AID 602314;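 active = above 50% in either of two replicates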;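 also: 0% = protein plus DNA without compound and 100% = DNA alone without protein; higher means less MgrA bound to DNA so lower polarization; one replicate is shown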
Active calls of the source: *; . = not tested or not shown; & = joins results of further samples. These rows are one share of the data, so the mix of outcomes need not match the whole.

#	SMILES	S aureus helic	MgrA DNA FP
1	N#Cc1c(-c2ccccc2)c(-c2ccccc2)n[nH]c1=S	.	-1.1
2	COc1ccccc1N1CCN(CCCCOc2ccc(F)cc2)CC1	8	.
3	CCN(c1ccccc1)S(=O)(=O)c1cccc(C(=O)O)c1	-16	.
4	COc1ccc(NC(=S)NCCN(C2CCCCC2)C2CCCC2)cc1	5	0.2
5	O=C(Nc1cccc2ccccc12)C1COc2ccccc2O1 (stereo not drawn)	.	-0.9
6	Cc1cc2nc(N3CCOCC3)c3ccccc3n2n1	-12	.
7	CCCCn1c(SCC(=O)c2ccccc2)nc2ccsc2c1=O	12	-0.4
8	Cc1ccc(CSc2nnc(-c3ccc4c(c3)OCO4)o2)cc1	5	.
9	C=CCn1cc(/C=C(/C#N)c2ccc(F)cc2)c2ccccc21	9	-1.1
10	CC(=O)OC[C@H]1O[C@@H](N2CCCCC2)[C@H](OC(C)=O)[C@@H](OC(C)=O)[C@@H]1OC(C)=O	3	.
11	Cc1cccc(CC2SC(=Nc3ccc(Cl)cc3)NC2=O)c1 (stereo not drawn)	.	-1.7
12	Cc1cc(/C(O)=C2\C(=O)C(=O)N(CCN(C)C)C2c2ccncc2)ccc1OCC(C)C (stereo not drawn)	-3	2.5
13	Cc1cccc2c1-c1sc(C(=O)n3c(C)cc4ccccc43)cc1CO2	-14	1.8
14	O=S(=O)(Cc1cccc(C(F)(F)F)c1)N1CCCCC1	.	0.5
15	Cn1cccc1Cc1nnc(SCC(=O)Nc2ccccc2)n1-c1ccc(F)cc1	-18	.
16	CC1(C)Nc2ccccc2-c2nc3ccccc3n21	24	.
17	COC(=O)Cn1ncc2c3ccccc3n(Cc3ccccc3)c2c1=O	8	.
18	COc1cccc(CSc2nc3ccncc3n2CC(=O)NCC2CCCO2)c1 (stereo not drawn)	4	.
19	Nc1nc(CSc2nc3ccccc3o2)nc(-c2ccccc2O)n1	5	.
20	O=S(=O)(NCCO)c1cc(Cl)ccc1Cl	10	.
21	CCc1cc(C(=O)O)c(SSc2sc(CC)cc2C(=O)O)s1	8	27
22	CSc1ccc(N2C(=O)C=CC2=O)cc1	.	-0.7
23	C/C(=N\OCC(=O)NC1CCCc2ccccc21)c1cc2ccccc2o1 (stereo not drawn)	9	.
24	CNC(=O)c1c(O)c2ccccc2[nH]c1=O	9	-0.5
25	CC1CCCCN1C(=O)CN(C)S(=O)(=O)c1cccc2nsnc12 (stereo not drawn)	-15	.

From no. 14 up to 18, copied from above:
#	SMILES	S aureus helic	MgrA DNA FP
14	O=S(=O)(Cc1cccc(C(F)(F)F)c1)N1CCCCC1	.	0.5
15	Cn1cccc1Cc1nnc(SCC(=O)Nc2ccccc2)n1-c1ccc(F)cc1	-18	.
16	CC1(C)Nc2ccccc2-c2nc3ccccc3n21	24	.
17	COC(=O)Cn1ncc2c3ccccc3n(Cc3ccccc3)c2c1=O	8	.
18	COc1cccc(CSc2nc3ccncc3n2CC(=O)NCC2CCCO2)c1 (stereo not drawn)	4	.

(cont.)
#	SMILES	S aureus helic	MgrA DNA FP
26	S=c1ccc2nnc(-c3ccccc3)n2[nH]1	3	.
27	CC(=O)O[C@@H]1[C@H]2OC(C)(C)O[C@H]2O[C@@H]1C(O)CO (stereo partly drawn)	.	-1.1
28	Cc1nn(Cc2ccccc2Cl)c(C)c1NC(=O)COCc1cc(-c2ccc3c(c2)OCO3)on1	12	.
29	c1ccc(-c2cn3c(n2)CCC3)cc1	1	.
30	Cc1ccc(-c2cnnc(-c3ccc(Cl)cc3)n2)cc1	-17	.
31	CC(C)(C)c1cc2ncnc(N3CCSCC3)c2s1	.	12
32	CC1(C)CC(=O)C(C=NC2CC(C)(C)NC(C)(C)C2)=C(O)C1	21	-0.6
33	O=C(CN1CCN(Cc2ccc(Cl)cc2)CC1)N1CCc2ccccc21	20	.
34	CCn1c(SCC(=O)OCC(=O)Nc2ccc(C)c(F)c2)nnc1-c1cccs1	-5	.
35	O=C(COC(=O)C1CCN(C(=O)Nc2ccccc2)CC1)c1c[nH]c2ccccc12	-7	.
36	O=C(c1ccccc1)N1CC(=O)N(OCc2ccccc2)C1c1cccs1 (stereo not drawn)	0	3.9
37	Cn1c(Cc2nc(-c3cnccn3)no2)nnc1SCc1ccc(Cl)cc1	.	-1.6
38	COc1ccc(C(=O)Nc2cccc(-c3nc4ccccc4o3)c2)cc1	3	-1.1
39	O=C1CC(c2ccccc2)NC(c2ccccc2)C1 (stereo not drawn)	5	2.4
40	O=C(COc1cccc(C(F)(F)F)c1)NCCc1ccccn1	-9	.
41	O=C(Cc1ccccc1)Nc1ccc2oc(-c3ccncc3)nc2c1	17	5.7
42	COc1ccc(N2CCN(c3c(C(=O)c4ccc(C)cc4)cnc4cc(OC)c(OC)cc34)CC2)cc1	8	.
43	CCC(C)c1ccc(NC(=O)CC(C)C)cc1 (stereo not drawn)	8	3.0
44	CC(C)c1cc(=O)[nH]c(SCCOc2ccccc2Cl)n1	19	-1.8
45	CCCn1c(=O)n(C)c(=O)c2c(SCC3CCCCO3)nc(CC(C)C)nc21 (stereo not drawn)	-6	.
46	Cc1cc(NC(=O)CN2C(=O)CC(c3ccccc3)Sc3ccccc32)no1 (stereo not drawn)	-1	.
47	COC(=O)C(C)Sc1nnc(-c2ccc(OC)cc2)n1-c1ccccc1 (stereo not drawn)	24	.
48	N#Cc1ccccc1COc1ncnc2c1cnn2-c1ccccc1	-14	.
49	COCCn1c(=NC(=O)c2ccccc2)sc2cc(S(C)(=O)=O)ccc21	11	.
50	O=C1Cc2ccccc2C(=O)N1Cc1ccccc1	.	-2.0

A few values from the entries so far.
Cn1c(Cc2nc(-c3cnccn3)no2)nnc1SCc1ccc(Cl)cc1 in MgrA DNA FP → -1.6
CC(C)(C)c1cc2ncnc(N3CCSCC3)c2s1 in MgrA DNA FP → 12

More entries follow:
#	SMILES	S aureus helic	MgrA DNA FP
51	C=CCc1cccc2cc(C(N)=O)c(=O)oc12	9	.
52	CC1(c2cccs2)CC(c2cccs2)=Nc2ccccc2N1 (stereo not drawn)	8	0.6
53	CC(=Nc1c2c(nc3ccccc13)N(C)CC2)N(C)C	4	-0.4
54	COc1ccc(CC(=O)NC(C)C(c2cccs2)N2CCOCC2)cc1 (stereo not drawn)	5	.
55	COc1ccc(C(=O)CSc2n[nH]c(=O)[nH]c2=O)cc1	6	.
56	O=C(CSc1ccccn1)Nc1ccc2ccccc2c1	-6	1.9
57	COC(=O)c1cc(OC)c(OC)cc1NC(=O)CN1CCNCC1	.	1.2
58	CCCn1c2ccccc2c2cnn(CC(=O)N(CC)CC)c(=O)c21	-32	.
59	O=C(O)C(Cc1ccccc1)NS(=O)(=O)/C=C/c1ccccc1 (stereo not drawn)	-8	.
60	COC(=O)c1ccc(NC(=O)C2CC(=O)N(Cc3ccc4c(c3)OCO4)C(=Nc3ccccc3)S2)cc1 (stereo not drawn)	.	0.3
61	CCOC(Cc1nnc(SCC(=O)c2ccccc2)n1C)OCC	-28	.
62	Cc1nc(C2CC2)[nH]c(=O)c1Cl	.	-6.3
63	COc1ccccc1C(=O)c1cc2c(cc1Br)OCCO2	.	-3.1
64	O=C(/C=C/c1cccs1)Nc1ccccc1	3	2.3
65	O=C1/C(=C\c2ccco2)N2CCC1CC2	-23	.
66	Cc1ccccc1Nc1nc(N)nc(CN(C)S(=O)(=O)c2cccs2)n1	11	.
67	CSc1nc(NC(=O)C(C)C)c(C#N)n1Cc1ccco1	.	-0.4
68	N#CC1C(N)=Nn2c(nnc2C(F)(F)F)SC12C(=O)Nc1ccccc12 (stereo not drawn)	-4	25
69	OC1(C(F)(F)F)CSC(Cc2ccccc2)=N1 (stereo not drawn)	-6	2.7
70	O=C(CCc1nnc2n(Cc3ccccc3)c(=O)c3ccccc3n12)NCCCN1CCCCC1	-20	.
71	O=C(NC(=O)C12CC3CC(CC(C3)C1)C2)Nc1ccc(Cl)cc1	.	-1.4
72	CC(C)Cn1c(CNC(=O)Cc2ccccc2)nc2ccccc21	-24	.
73	c1ccc2c(c1)nc1n2CCN1CCN1CCOCC1	7	.
74	CCSc1ncccc1C(N)=O	.	0.2
75	O=C(Nc1ccc(S(=O)(=O)N2CCCCC2)cc1)c1cc(=O)c2ccccc2o1	-11	.
76	O=C(CSc1nnc2sc3ccccc3n12)N1CCCC1	-16	.
77	O=C(Cc1ccccn1)NCCO	12	.
78	CCOC(=O)c1c(-c2ccc(Br)cc2)csc1/N=C/C1C(=O)NC(=S)NC1=O	-8	22
79	COc1ccc(CCN2C(=O)CC(C(=O)Nc3ccc(OC)cc3)SC2=Nc2ccccc2)cc1 (stereo not drawn)	.	-0.3
80	CCOc1ccccc1NC(=O)N1CCCC(c2nnc(SC)n2C)C1 (stereo not drawn)	-1	-1.6
81	C=CCOC(=O)C1CC=CCC1C(=O)Nc1ccc(NC(C)=O)cc1 (stereo not drawn)	7	-2.5
82	Cc1cc2nc(C)c(C)nc2cc1C	.	-0.6
83	O=C(Nc1ccc(S(=O)(=O)N2CCCC2)cc1)c1cccs1	19	.
84	O=C(O)CN1C(=O)c2cccc3c(Cl)cc(Cl)c1c23	4	3.2
85	Cc1ccc(CCNC(=O)Cn2ncn3c(cc4sccc43)c2=O)cc1	9	.
86	CC(C)NC(=O)c1ccc2c(=O)n(Cc3ccco3)c(=S)[nH]c2c1	8	0.3
87	Nc1ccc(S(=O)(=O)NCc2ccncc2)cc1	-1	-0.9
88	COc1ccc(C2CC(c3ccccc3)=NN2C(=O)CSc2nc(N)c(C#N)cc2C#N)cc1 (stereo not drawn)	-20	.
89	CCOc1cc(C(=O)Nc2ccc(C(=O)Nc3cccc(-c4nc5ccccc5o4)c3)cc2)cc(OCC)c1OCC	.	-3.1
90	Cc1nn(-c2ccccc2)c(OC(=O)c2ccc(Br)o2)c1Sc1ccccc1	-14	.
91	Nc1ccc(CCC(=O)N2CCCC2)cc1	4	-0.8
92	CC1=C(C#N)S(=O)(=O)C(C#N)C(c2ccccc2)C1 (stereo not drawn)	.	-0.6
93	CCOC(=O)Cc1csc(CC(N)=O)n1	-5	1.2
94	NS(=O)(=O)c1ccc(CCNC(=O)c2c(-n3cccc3)sc3c2CCCC3)cc1	-5	.
95	O=C(O)c1cccc(-c2nc3ccccc3[nH]2)c1	-23	2.6
96	COc1cccc2c(=O)c(C(=O)NCc3cccs3)c[nH]c12	0	-1.7
97	Clc1c(-c2nnco2)sc2ccccc12	9	-0.4
98	FC(F)(F)c1cccc(NCc2cn3ccccc3n2)c1	15	-1.8
99	CC1CN(C(=O)COc2ncnc3c2cnn3-c2ccccc2)CC(C)O1 (stereo not drawn)	8	.
100	N#Cc1c(N)nc(SCc2ccccc2)c(C#N)c1C1CCCCC1	6	.

The results go on:
#	SMILES	S aureus helic	MgrA DNA FP
101	O=C(c1ccc(CS(=O)(=O)c2ccccc2)o1)N1CCN(c2ccccc2)CC1	9	.
102	CCn1c(-c2nonc2NC(C)=O)n[nH]c1=S	-21	.
103	CC1CS/C(=C(/C(=O)O)C(=O)/C=C/c2cccc(O)c2)S1 (stereo not drawn)	-13	0.3
104	Cc1cc(NC(=O)c2ccc3c(Cl)c4c(nc3c2)CCCC4)no1	10	.
105	Fc1ccc(COc2cn(-c3ccccc3)nn2)cc1	-17	.
106	Cc1cc(C=C2C(=O)OC(C)(C(C)(C)C)OC2=O)c(C)n1-c1ccccc1 (stereo not drawn)	10	-2.5
107	COc1ccc2c(c1)c(CC(=O)OCc1ccccn1)c(C)n2C(=O)c1ccc(Cl)cc1	13	4.3
108	COc1cccc(-n2cc(C(=O)N3C(C)CCCC3C)c3ccccc3c2=O)c1 (stereo not drawn)	13	-0.4
109	Clc1ccc(Nc2nnns2)cc1	8	-0.9
110	COC(OC)c1ccc(C#N)c(SCc2ccc(Cl)cc2)n1	.	-1.4
111	CCn1c(O)c(C=NCCCCCc2nc(-c3ccc(C)cc3)no2)c(=O)n(CC)c1=S	-9	.
112	COc1ccc2c(=O)c(Oc3ccccc3)c(C)oc2c1OC	23	.
113	C=CCN(CC=C)S(=O)(=O)c1ccc(NC(=O)C2CCCCC2C(=O)O)cc1 (stereo not drawn)	10	-0.6
114	O=C(O)CNC(=O)C(c1ccccc1)c1ccccc1	-5	-1.4
115	c1ccc(Cc2nn[nH]n2)cc1	.	2.6&0.6
116	CN(C1CCCCC1)S(=O)(=O)c1ccccc1	.	-0.6
117	CCN(C(=O)Nc1cccc(Cl)c1)c1ccccc1	.	1.8
118	C=CCSC1=C(C#N)C(c2ccc(C)cc2)C(C(=O)OC)C(=O)N1 (stereo not drawn)	5	1.8
119	CC(Oc1ccc(Oc2ccccc2)cc1)C(=O)NC1CC1 (stereo not drawn)	-12	.
120	COc1ccc(N2Cc3cccc(C(=O)NCCCN4CCN(c5cccc(Cl)c5)CC4)c3C2=O)cc1	18	.
121	O=C(O)c1cccc(OCCN2CCCC2=O)c1	3	-6.2
122	Cn1c(=NC(=O)c2ccc(S(C)(=O)=O)cc2)sc2ccccc21	9	.
123	O=C(Cn1cc2c(n1)CCCCC2)N1CCCCC1	5	-2.2
124	CC(NC(=O)c1ncn[nH]1)c1ccc(-c2ccccc2)cc1 (stereo not drawn)	6	-0.1
125	Cc1ccc(C(=O)C2CCN(C(=O)Cc3ccccc3)CC2)cc1	10	0.3
126	CC1CCc2c(sc(NC(=O)c3cccs3)c2C(=O)O)C1 (stereo not drawn)	-2	.
127	O=C1CN(C(=O)CCC(=O)c2ccc(F)cc2)c2ccccc2N1	-16	-1.4

Values by screen from the list.
Nos. 115 to 118 in MgrA DNA FP: 2.6&0.6, -0.6, 1.8, 1.8

Given with values under each structure: 4 of the compounds above
Fields: S aureus helic, MgrA DNA FP
[7] CCCCn1c(SCC(=O)c2ccccc2)nc2ccsc2c1=O
    12, -0.4
[8] Cc1ccc(CSc2nnc(-c3ccc4c(c3)OCO4)o2)cc1
    5, .
[9] C=CCn1cc(/C=C(/C#N)c2ccc(F)cc2)c2ccccc21
    9, -1.1
[10] CC(=O)OC[C@H]1O[C@@H](N2CCCCC2)[C@H](OC(C)=O)[C@@H](OC(C)=O)[C@@H]1OC(C)=O
    3, .
